# Compound activity (PubChem)
# UCH37 DUB inh – inhibitors of human UCH37 deubiquitinase, primary screen, biochemical, Ub-AMC cleavage, fluorescence | 0.33% of 330,000 active | inhibition, % (concentration not given with the values) | Ubiquitin carboxyl-terminal hydrolase isozyme L5 (Homo sapiens), Q9Y5K5 | purified proteasome/UCH37;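 active = mean of two replicates above 20%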;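 also: 0% = compound-free wells with enzyme and 100% = wells lacking proteasome; stock transfer was 100 nL into about 20 µL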
# Target sequence (Q9Y5K5 whole entry, looked up): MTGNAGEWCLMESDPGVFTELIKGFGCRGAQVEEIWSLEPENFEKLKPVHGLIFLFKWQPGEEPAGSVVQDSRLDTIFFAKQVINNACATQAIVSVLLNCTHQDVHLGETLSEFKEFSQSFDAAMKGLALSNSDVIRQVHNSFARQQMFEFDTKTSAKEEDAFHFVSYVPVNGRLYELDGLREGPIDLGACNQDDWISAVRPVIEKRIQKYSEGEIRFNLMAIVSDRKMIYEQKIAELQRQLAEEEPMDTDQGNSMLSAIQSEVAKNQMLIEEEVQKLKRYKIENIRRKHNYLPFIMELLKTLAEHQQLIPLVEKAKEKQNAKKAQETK
#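 Material: Human UCH37 enzyme supplied as purified proteasome complex | Schedule: 30 min compound-proteasome preincubation then 25 min substrate reaction, room temperature | Detection: AMC fluorescence from Ub-AMC cleavage, excitation 355 nm, emission 460 nm | Benchmarks: Wells without proteasome as full block, compound-free enzyme plus substrate as uninhibited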
# HNF4A DNA FP – change in binding of human HNF4A to DNA, primary screen, biochemical, fluorescence polarization, FITC-DNA. 0.3% of 360,000 active. activity change, % at 10 µM. Hepatocyte nuclear factor 4-alpha (Homo sapiens), P41235. AID 1224865, 2016. 1 h; in the data active = activity change above about 30%, passing the limit was not always enough;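 also: controls were the assay level and a saturating level of protein; the project sought stronger binding though the title names inhibitors; some compounds called inactive have numbers as strong as hits; positive values seem to mean higher polarization but the record does not say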
# LANA-H2A inh – blockers of LANA interaction with H2A/H2B – biochemical, FP readout, HTS, primary screen; Protein LANA1 (Human herpesvirus 8 type P (isolate GK18)), Q9QR71; cell-free LANA-H2A/H2B peptide, fluorescence polarization; AID 2629, 2010; inhibition, % (concentration not given with the values); 0.6% of 320,000 active; in the data active = inhibition mostly above about 10%, no sharp cut-off; inactive = mostly below about 6.7%;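 also: stock transfer was 7.5 nL into about 10 µL; 0% = median of vehicle wells and 100% = median of positive control wells; one replicate is shown; the record names a cut of 25% in any replicate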
# FGF22 binding – binders of human FGF22 protein, primary screen, FGF22 synaptogenesis inhibitor project, biophysical, thermal shift, single point; Fibroblast growth factor 22 (Homo sapiens), Q9HCT0; recombinant FGF22 thermal shift, SYPRO orange fluorescence; percent of sucrose octasulfate shift, DMSO zero; calls only at 9.99 µM; 1.5% of 340,000 active; AID 651658, 2012;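 active = melting point raised past a set limit in the mean and every replicate; inconclusive = no clear call; three in four hits are not shown here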
# ALR H2O2 inh – inhibitors of human ALR sulfhydryl oxidase, primary screen, biochemical, H2O2 detection, HRP-luminol luminescence, single point. FAD-linked sulfhydryl oxidase ALR (Homo sapiens), P55789. purified ALR, DTT oxidation. inhibition, % (no concentration beside the values). 3.8% of 290,000 active;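 active = mean and each replicate at 75% or more; inconclusive = only one of the two met; inactive = neither met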;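 also: stock transfer was 7.5 nL into about 7.5 µL; 0% = neutral wells and 100% = wells with inactivated enzyme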
# Target sequence (P55789 whole entry, looked up): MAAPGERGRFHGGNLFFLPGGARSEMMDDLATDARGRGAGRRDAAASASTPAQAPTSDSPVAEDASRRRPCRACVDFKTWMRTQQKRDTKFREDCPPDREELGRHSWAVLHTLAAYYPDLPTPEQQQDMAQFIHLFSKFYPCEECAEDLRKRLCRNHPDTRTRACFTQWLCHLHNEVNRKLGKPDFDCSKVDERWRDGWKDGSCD
# E coli growth – E. coli growth inhibition, primary screen, OD600 | Escherichia coli growth, 23 h; stronger effect = lower value | OD600 absorbance (concentration not given with the values) | 0.21% of 330,000 active;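 active = OD600 absorbance below the run mean of sample wells minus 3.6 SD, in any replicate, cut at about 0.56 in these data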;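 also: stock transfer was 300 nL into about 60 µL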
# Beta2AR agonist – beta2AR agonists driving receptor internalization, primary screen, cell-based, FAP fluorogen, flow cytometry | Beta-2 adrenergic receptor (Homo sapiens), P07550 | Am2.2-beta2AR cells; reference of the scale not given here | response, % (no concentration beside the values) | 0.43% of 340,000 active | AID 504454, 2011;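 active = response above a set limit, near 3 SD of response in nonfluorescent compounds, cut at about 42% in these data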;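 also: stock transfer was 100 nL into about 11 µL; a reference agonist was the positive control; negative values mostly stem from fluorescent compounds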
# Target sequence (P07550 whole entry, looked up): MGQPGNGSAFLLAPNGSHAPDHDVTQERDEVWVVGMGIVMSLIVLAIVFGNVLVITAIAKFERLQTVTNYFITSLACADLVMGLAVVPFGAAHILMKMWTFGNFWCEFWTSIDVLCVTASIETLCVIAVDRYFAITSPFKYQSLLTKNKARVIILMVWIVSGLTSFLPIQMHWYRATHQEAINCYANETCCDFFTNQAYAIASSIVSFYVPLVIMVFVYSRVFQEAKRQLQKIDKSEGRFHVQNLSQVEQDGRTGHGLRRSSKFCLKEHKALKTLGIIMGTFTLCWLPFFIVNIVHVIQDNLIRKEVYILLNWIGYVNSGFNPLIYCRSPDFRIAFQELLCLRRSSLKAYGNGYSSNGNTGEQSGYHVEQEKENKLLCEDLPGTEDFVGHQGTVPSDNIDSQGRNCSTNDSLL
# * = called active by the depositor; i = inactive; u = inconclusive; x = no result given; + = active, no number; & = joins results of further samples. This is a subset. The share of hits here may be higher or lower than overall.
SMILES,UCH37 DUB inh,HNF4A DNA FP,LANA-H2A inh,FGF22 binding,ALR H2O2 inh,E coli growth,Beta2AR agonist
O=C(Nc1ccc(F)cc1F)c1cccc(S(=O)(=O)N2CCCCC2)c1,0.0,-0.1,-1.6,i,0.6,0.666,4.0
O=C(CCc1nc(-c2ccccc2Cl)no1)NC1CCCCC1,-0.8,2.0,0.8,i,-1.2,0.648,-2.5
Cn1nc(C(=O)N2CCN(S(=O)(=O)c3ccccc3)CC2)c2ccccc2c1=O,4.0,-2.8,-0.2,x,-3.2,0.742,11.3
CCC(=O)N1CCc2cc(S(=O)(=O)N3CCN(c4ccccn4)CC3)ccc21,-0.4,-1.1,2.7,x,-1.1,0.705,-18.9
O=C(C1CCCN(S(=O)(=O)c2ccc(Cl)cc2)C1)N1CCCC1 (centres undefined),2.2,-2.3,-1.2,i,-2.4,0.69,-5.4
CCN(C(=O)CSc1nc2ccc([N+](=O)[O-])cc2s1)C1CCS(=O)(=O)C1 (centres undefined),7.1,-1.4,-6.3,i,-8.5,0.659,-11.6
CN(C)C(=O)C(NC(=O)c1ccccc1)=C(Cl)Cl,0.1,-0.1,-1.5,x,-4.6,0.663,-0.2
CS(=O)(=O)N(CC(=O)N1CCc2ccccc2C1)c1ccc2c(c1)OCO2,2.7,-1.2,1.9,x,-6.2,0.679,-5.0
CC(=O)N1N=C(c2ccccc2)CC1c1cn(C)c2ccccc12 (centres undefined),1.5,5.6,1.4,x,-7.1,x,-19.8
O=C(CSc1n[nH]c(-c2cccs2)n1)NCc1ccc2c(c1)OCO2,2.1,5.2,-5.1,x,13.6,0.691,-0.7
CC(C)(C)c1csc(NC(=O)CS(=O)(=O)c2ccccc2)n1,1.0,-0.8,-2.2,i,u,0.677,-3.4
COc1ccc(Nc2ncc(C(=O)N3CCN(c4ccccc4OC)CC3)c3ccccc23)cc1,-12.1,1.2,-2.0,x,x,0.73,-10.0
c1ccc(Cn2cc(-c3cccnc3)cn2)cc1,4.6,0.6,-3.0,i,-7.7,0.667,-0.7
Cc1ccc2occ(/C=N/NC(=O)c3ccccc3C)c(=O)c2c1,x,-4.0,-10.6,i,3.4,x,22.6
COc1ccc(C=NCC2OCCc3ccccc32)cc1OC (centres undefined),2.6,1.2,0.2,i,2.3,0.689,-7.4
COc1ccc(C)cc1N(CC(=O)N1CCc2ccccc2C1)S(C)(=O)=O,4.6,-2.0,-3.9,i,-0.6,0.647,-6.3
CCCCNC(=O)CC1N=C2c3ccccc3N=C(SCC(=O)Nc3cccc(C)c3)N2C1=O (centres undefined),3.7,-0.7,0.0,x,98.2*,0.742,-11.3
CSc1ccc(CCNC(=O)c2cccc3c2C(=O)N(C2CCCCC2)C3)cc1,0.8,-1.4,0.7,x,-64.5,0.685,25.1
CCOC(=O)c1c(-c2ccccc2Cl)csc1NC(=O)c1cc(S(=O)(=O)N2CCOCC2)ccc1C,-16.6,5.5,-3.8,x,-13.7,0.737,0.4
COC(=O)C(NC(=O)c1ccco1)(Nc1ccc(Br)cn1)C(F)(F)F (centres undefined),-2.0,1.2,0.3,x,-16.5,0.693,0.4
Cc1cc(=O)[nH]c(N/N=C/c2c(C)nn(-c3ccccc3)c2Cl)n1,x,-2.0,-0.3,i,x,x,-5.5
NC(=O)C1(N2CCCCC2)CCN(C(=O)c2ccc(C#Cc3ccccc3)o2)CC1,1.6,5.2,-2.3,x,-6.7,0.721,8.8
Cc1ccc(S(=O)(=O)N[C@H](C(=O)Oc2ccc3c(C(F)(F)F)cc(=O)oc3c2)c2ccccc2)cc1,x,-10.1,-2.2,x,0.5,x,-4.4
COc1ccc([C@H]2CC(=O)C=C(c3ccc(SC)cc3)C2)cc1,0.8,-2.3,1.0,i,1.0,0.784,-3.6
COc1cc(C)ccc1N(CCCN1C(=O)c2cccc3cccc(c23)C1=O)C(=O)c1cccs1,-47.9,-2.3,-4.0,x,-30.9,0.75,-3.5
# Other structures.
SMILES,UCH37 DUB inh,HNF4A DNA FP,LANA-H2A inh,FGF22 binding,ALR H2O2 inh,E coli growth,Beta2AR agonist
COC(=O)C1=C(C)NC(C)=C(C(=O)OC)C1C(=O)OC1CCCCC1=O (centres undefined),-23.2&-37.7,-4.1&2.5,10.8,i,1.3,0.692&0.727,-6.7&-4.6
CCCCCC(O)(c1ccc(OCC)cc1)C(CN1CCOCC1)c1ccccc1 (centres undefined),1.8,0.9,-1.9,i,-1.6,0.624,0.2
Cc1ccc(CNC(=O)CNC(=O)c2c(C)nn(C)c2Cl)cc1,-2.3,2.3,0.2,x,x,0.702,3.1
COc1ccc(NC(=O)C2(c3ccccc3)CCCC2)cc1,-1.2,-0.2,0.2,i,1.9,0.661,2.3
CCc1ccc(N2C(=O)/C(=C/c3cccs3)N(CC(=O)OC)C2=S)cc1,2.7,-1.2,3.0,x,-6.6,0.732,-5.7
COC(=O)C(C)Sc1ccc2nnc(-c3ccc(F)cc3)n2n1 (centres undefined),-28.0,-1.4,x,i,x,0.621,-40.9
CC1CCC(NC(=O)CCCn2sc3ccccc3c2=O)CC1 (centres undefined),-1.4,-3.2,6.4,i,1.3,0.671,-2.5
Cc1ccc2c(c1)c1ncn(Cc3ccc(F)cc3)c(=O)c1n2C,-24.6,3.6,-1.2,i,x,0.682,0.8
CC(=O)NN1C(=O)c2ccccc2NC1c1ccco1 (centres undefined),x,1.8,-1.2,i,0.7,x,3.5
Cc1c(Cl)cccc1NC(=O)CCN1CCCCC1,3.9,13.0,-4.7,x,3.2,0.66,4.9
O=C(O)CCn1cc(-c2ccc(Cl)cc2)nc1-c1ccncc1,-0.3,-7.4,0.5,i,77.2*,0.702,-3.5
CCC(=O)Nc1cccc(C2=NOC3(C2)C[C@H](C(N)=O)N(C(=O)Cc2ccc([N+](=O)[O-])cc2)C3)c1 (some centres undefined),-1.4,0.6,-2.8,i,-6.1,x,-10.4
CCCCc1ccc(NC(=O)C2CCN(S(C)(=O)=O)CC2)cc1,5.2,-2.2,2.4,x,-3.5,0.699,2.3
CC(C)C(=O)Nc1nnc(COc2ccc(Cl)cc2)s1,5.5,-4.2,-1.2,i,-30.0,0.663,-9.7
Fc1ccc(-c2cc(C(F)(F)F)nc(-n3cc(Cl)cn3)n2)cc1,0.4,-0.7,-0.8,i,x,0.683,-0.1
Oc1ccccc1C1CCCCC1c1ccccc1 (centres undefined),5.1,0.6,-4.2,i,19.8,0.703,14.4
CN(C(=O)c1ccc2c(c1)OCO2)C1CCS(=O)(=O)C1 (centres undefined),5.1,0.5,-1.3,i,-2.8,0.667,-1.4
CCC(CC)C(=O)c1c[nH]c(C(=O)NC2CCCCCC2)c1,3.4,2.4,-11.2,i,20.7,0.724,0.0
CC(=O)N1CCc2c(sc3c2c(=O)n(-c2ccccc2)c(=O)n3Cc2ccccc2Cl)C1,1.6,-1.4,-2.8,i,-17.7,0.668,-19.1
Cc1nn(CC(=O)N2CCN(c3ccccc3)CC2)c(C)c1[N+](=O)[O-],3.5,1.1,-0.1,i,5.6,0.672,5.2
O=C(CN1CCCc2ccccc21)NC(=O)NCc1ccccc1,0.7,-3.3,-0.7,i,27.4,0.718,6.7
O=c1[nH]n(Cc2ccccc2)c(=O)c2ccccc12,-0.8,1.1,1.5,i,-3.0,0.668,2.1
COc1ccc(N(CC(=O)NCc2cccs2)S(=O)(=O)c2c(C)nn(C)c2C)cc1,-1.7,1.5,1.3,i,1.0,0.694,1.0
CC(=O)CSc1nnc(Cc2ccc3c(c2)OCO3)o1,-2.9,-1.5,-0.4,x,x,0.705,-2.8
COc1ccc(C)cc1NC(=O)CSc1ccc(-c2sc(C)nc2C)nn1,3.1,5.8,-4.9,i,-5.1,0.689,-0.9

# ALR H2O2 inh, entries above that show a hit
canonical_smiles | UCH37 DUB inh | LANA-H2A inh | ALR H2O2 inh | Beta2AR agonist
CCCCNC(=O)CC1N=C2c3ccccc3N=C(SCC(=O)Nc3cccc(C)c3)N2C1=O (centres undefined) | 3.7 | 0.0 | 98.2* | -11.3
O=C(O)CCn1cc(-c2ccc(Cl)cc2)nc1-c1ccncc1 | -0.3 | 0.5 | 77.2* | -3.5

# The results go on.
SMILES,UCH37 DUB inh,HNF4A DNA FP,LANA-H2A inh,FGF22 binding,ALR H2O2 inh,E coli growth,Beta2AR agonist
COc1ccccc1-n1c(CNC(=O)c2ccco2)n[nH]c1=S,1.6,1.0,2.6,i,u,0.739,4.5
Cc1cc(C(F)(F)F)nn1CC(=O)N1CCOCC1,-0.8,-2.5,-13.9,i,-3.8,0.647,-0.6
CCc1nc2ccccc2nc1N1CCN(S(=O)(=O)c2c(C)cc(Cl)cc2C)CC1,-8.1,-1.6,3.4,i,-3.6,0.683,-2.4
COc1ccc(OC)c2[nH]c(=O)c(CCNC(=O)c3cc4ccccc4o3)cc12,1.5,4.0,1.4,i,-5.9,0.775,-6.6
Cc1cc(NCCCn2ccnc2)n2nc(C)c(-c3ccc(Cl)cc3)c2n1,-46.1,-2.0,6.0,x,15.1,0.711,11.9
N#Cc1ccc(C(CC(=O)O)N2Cc3ccccc3C2=O)cc1 (centres undefined),5.1,2.0,-0.3,i,-2.2,0.635,3.6
O=C(O)c1ccc(CNC(=O)c2ccccc2NC(=O)c2ccc([N+](=O)[O-])cc2)cc1,4.8,1.4,-7.6,i,-5.6,0.704,5.8
CC1=NC(C)(C)Cc2c(C)cccc21,-0.2,-5.7,-2.8,i,-0.5,0.689,6.8
Cc1nn(-c2ccccc2)c(Cl)c1/C=N/NC(=O)c1ccnn1C,x,3.2,-9.9,i,-9.4,x,6.7
O=S(=O)(c1ccccc1F)N1CCN(CCOc2ccccc2)CC1,3.0,0.5,3.0,i,4.0,0.677,-0.5
O=C(CCc1nnc2ccc(N3CCC4(CC3)OCCO4)nn12)NCc1ccc(F)cc1,-2.1,2.1,-9.8,i,-8.1,0.72,-8.4
Cc1ccccc1C(=O)Nc1c(C(=O)N(CCN(C)C)Cc2ccco2)oc2ccccc12,x,-1.8,0.2,i,-12.5,x,-6.2
COc1ccc([C@H]2CC(=O)C=C(c3ccc(F)cc3OCc3ccccc3)C2)cc1,1.3,2.0,-1.7,i,5.6,x,-12.3
NC(=O)c1ccc(NC(=O)COC(=O)C(Cc2ccccc2)NC(=O)c2ccccc2)cc1 (centres undefined),4.9,-0.3,-0.9,i,27.8,0.649,-5.7
Cc1ccc(CSc2nnc(CNc3ccc(F)cc3)o2)cc1,4.7,-0.9,-2.7,x,-25.9,0.666,-3.7
Cc1ccccc1NC(=O)NNC(=O)c1ccc2ccccc2c1,0.8,-2.6,0.3,i,-1.1,0.709,-7.2
O=C(CC1SC(N2CCCCC2)=NC1=O)Nc1ccc(C(=O)Nc2ccccc2)cc1 (centres undefined),6.4,-2.9,3.6,i,5.6,0.661,-6.2
CCCCCn1c(CNC(=O)COC)nc2ccccc21,-2.7,0.8,1.7,x,2.9,0.711,2.4
CN1C(=O)c2ccccc2Sc2ccc(NC(=O)NC3CC3)cc21,-1.4,0.8,2.9,x,-6.9,0.677,-4.0
O=C(NC(Cc1ccccc1)C(=O)N1CCN(c2ccccc2O)CC1)c1ccccc1 (centres undefined),0.9,-0.8,x,i,x,0.617,2.4
Clc1nnc(NN=C2CCCC2)c2ccccc12,19.8,1.2,-4.9,x,53.5,0.695,9.3
Cc1ccccc1C(=O)N/N=C/c1ccsc1C,x,1.0,-2.3,i,0.2,x,6.4
O=C(NCC1CCCCC1)c1cccnc1Cl,1.7,3.3,-0.3,+,x,0.708,-8.0
